VACV Venus inh: qHTS for Stage-Specific Inhibitors of Vaccinia Orthopoxvirus: Venus Reporter Primary qHTS; Potency, µM (highest dose often 36.5 µM), inactives show top-dose activity change, negative = inhibition, actives largely listed as inhibitors; Vaccinia virus Venus reporter expression, fluorescence; hit rate 0.46% among 330,000; active means well fitted inhibition curve with a large enough effect; inconclusive means small, poorly fitted or top-dose-only effect; inactive means no such curve, though single readings can be large or run the other way; tested in A549 cells; note: nearly all actives have a fitted effect of over 30% in size; inactives centre near -10
Vaccinia mCherry: qHTS for Stage-Specific Inhibitors of Vaccinia Orthopoxvirus: mCherry Reporter Primary qHTS; Vaccinia virus mCherry reporter infection, fluorescence; about a quarter of the inactives have no number; hit rate 0.63% among 310,000; Potency, µM (titrated, usually from 36.5 µM), without a hit: top-dose activity change, negative = inhibition, hits mostly inhibitors; AID 720579, 2013; active = well fitted inhibition curve with a large enough effect; inconclusive = small, poorly fitted or top-dose-only effect; inactive = no such curve, though single readings can be large or run the other way; tested in A549 cells; note: nearly all actives have a fitted effect of over 35% in size; inactives centre near -10
The depositor's hits bear a star; i = inactive; ? = inconclusive; . = no result given; [ ] = another dose, or the depositor's remark. % is set by controls: 0 for no effect and ±100 for the full control effect; potency is the fitted concentration of half-maximal effect.

Values in the order – VACV Venus inh	Vaccinia mCherry
> C/C(Cn1cnc([N+](=O)[O-])n1)=N/NC(=O)COc1ccccc1Cl
→ -8%	-15%
> CCSc1nnc(NC(=O)C2CC(=O)N(Cc3ccc(C)cc3)C2)s1 (centres undefined)
→ -6%	i
> COc1ccc(C(CC(=O)O)c2cc(OC)c(OC)c(OC)c2)cc1OC (centres undefined)
→ -6%	i
> COc1ccc(CN2CCCC(C(=O)N(C)Cc3ccccc3)C2)cc1OC (centres undefined)
→ -16%	.
> COc1ccc(OC)c(CCNC(=O)CCn2c(=O)c3cccn3c3ccc(F)cc32)c1
→ -14%	-21%
> CCCC1(CC)C(=O)NC(=O)N=C1N (centres undefined)
→ 1%	i
> C/C=C/c1ccc(OCC(O)CNCC(c2ccc(OC)cc2)N(C)C)c(OC)c1 (centres undefined)
→ ?	?
> COc1ccc(S(=O)(=O)N2CCCCC2)cc1NS(=O)(=O)c1ccccc1
→ -7%	-3%
> Cc1cccc(NC(=O)CSCC(=O)N=c2sccn2C)c1
→ -11%	-16%
> COc1ccc(NC(=O)c2cc3cc(C)ccc3[nH]2)cc1
→ -6%	-10%
> COc1cc(/C=N/NC(N)=S)ccc1OCC(=O)N1CCOCC1
→ 1%	i
> COC(=O)[C@@]12CCCN1[C@H](c1ccc(SC3CCCCC3)cc1)[C@H]1C(=O)N(C)C(=O)[C@H]12
→ -26%	-10%
> CN(CCc1ccccn1)C(=O)CCC1CCCN(C(=O)c2c3c(nn2C)CCCC3)C1 (centres undefined)
→ -7%	i
> Cc1cc(-c2ccc(S(=O)(=O)Nc3ccccc3F)s2)on1
→ -7%	-5%
> CN(C)CC1CCCCC1C1(O)c2ccccc2CSc2sccc21 (centres undefined)
→ ?	-24%
> CCN(CC)CCCNC(=O)CNC(=O)c1nn(-c2ccc(OC)cc2OC)c(=O)c2ccccc12
→ -9%	-12%
> C[C@H]1CCC[C@]2(O[C@H](CCO)C[C@H](O)[C@H]2O)O1
→ 1%	i
> COc1ccc(OCC(=O)Nc2c3c(nn2C(C)(C)C)CSC3)cc1
→ -10%	i
> COc1ccc(N2C(=O)CC(NC3CCCCNC3=O)C2=O)cc1 (centres undefined)
→ -6%	-12%
> Cc1ccccc1CNCCCSc1ncccn1
→ -10%	i
> Cn1ccnc1SCC(=O)Nc1cccc([N+](=O)[O-])c1
→ 0%	-1%
> CCn1c(=N)n(CC(O)c2ccccc2)c2ccccc21 (centres undefined)
→ -16%	-7%
> C=C1[C@H]2C[C@H]3[C@H]4N5C[C@]6(C)CCC[C@]47[C@H]([C@H]2O)[C@]3(C[C@]5(O)[C@H]67)[C@@H]1O
→ 1%	1%
> O=c1oc2ccc(Cl)cc2nc1/C=C(\O)c1cccs1
→ -24%	?
> COc1ccccc1-c1cnc(C(O)c2ccc(SC)cc2)[nH]1 (centres undefined)
→ -8%	i
> Cc1cccc(C)c1NC(=O)CN(C)CC(=O)Nc1ccccc1Br
→ -1%	-13%
> O=S(=O)(c1ccc2c(c1)OCCO2)N1CCN(c2nc3ccccc3s2)CC1
→ -26%	-15%
> O=C(Nc1c(C(=O)Nc2cccc3ccccc23)cnn1-c1ccccc1)c1ccco1
→ 3%	-15%[1.46 µM]
> COc1cc(CNCc2cccnc2)ccc1OCc1ccccc1
→ -5%	-18%
> c1cc2c(cc1-c1ccc3c(c1)OCO3)CNCc1cnnn1-2
→ 0%	i

By substructure, the compounds so far containing a thiophene ring, fused or not (three)
Values in the order – VACV Venus inh	Vaccinia mCherry
> Cc1cc(-c2ccc(S(=O)(=O)Nc3ccccc3F)s2)on1
→ -7%	-5%
> CN(C)CC1CCCCC1C1(O)c2ccccc2CSc2sccc21 (centres undefined)
→ ?	-24%
> O=c1oc2ccc(Cl)cc2nc1/C=C(\O)c1cccs1
→ -24%	?

(next part)
Values in the order – VACV Venus inh	Vaccinia mCherry
> Clc1ccc2nc(-c3cccs3)c(Nc3ccc4c(c3)OCCO4)n2c1
→ -16%	-23%
> Cc1ccc(C)c(OCCC(=O)Nc2ccc3c(c2)OCO3)c1
→ -9%	-18%
> COc1ccc(S(=O)(=O)NNC(=O)c2sccc2-n2cccc2)cc1
→ -4%	-2%
> Cc1nnc(NC(=O)CSCc2cc(=O)c3cc(Cl)ccc3[nH]2)s1
→ -10%	6%
> CCN(CC(=O)Nc1ccc2c(c1)OCCO2)CC(=O)Nc1ccc2c(c1)OCO2
→ 12%	i
> Cc1cnc(NS(=O)(=O)c2ccccc2)c(Br)c1
→ -9%	-21%
> O=C(CSc1cccc[n+]1[O-])Nc1ccc2c(c1)OCCO2
→ -6%	i
> COc1ccc(S(=O)(=O)NCC(=O)N(CC(=O)NCC2CCCO2)Cc2ccccc2)cc1 (centres undefined)
→ -10%	-15%
> COc1ccc(C(=O)CC(=O)C(=O)Nc2ccc(C)cc2Cl)cc1
→ -5%	i
> CNC(=O)CSc1ncnc2c1cnn2-c1ccccc1
→ -2%	-3%
> CC1CCCCN1C/C=C/c1ccccc1[N+](=O)[O-] (centres undefined)
→ -11%	-11%
> C=CCN1CC[C@]23c4c5ccc(O)c4OC2[C@H](O)CC[C@@]3(O)[C@H]1C5 (some centres undefined)
→ -7%	i
> COc1cccc(Nc2nnc(SCC(=O)N3CCOCC3)s2)c1
→ -8%	-13%
> CC(=O)c1c(C)[nH]c(C(=O)COC(=O)Cc2ccccc2F)c1C
→ -10%	-8%
> Cc1ccnc(N2CCCC(C(=O)Nc3ccc(C)c(C)c3)C2)n1 (centres undefined)
→ 9%	-1%
> CC(=O)c1ccc(NC(=O)CSc2ccc(-c3ccco3)nn2)cc1
→ -8%	-12%
> CCOC(=O)C1=C(C)NC2=C(C(=O)C(C(=O)OCC)C(c3ccc(OC)cc3)C2)C1c1ccccn1 (centres undefined)
→ -21%	.
> CC1=CC(=C(C#N)C#N)c2ccccc2N1C
→ -5%	13%
> O=C(C[C@H]1C/C=C\C[C@@H](Cc2ccc(F)cc2)C(=O)OC[C@H]2CCCN2C1=O)N[C@H](CO)Cc1ccccc1
→ -29%	-3%
> CCOC(=O)C(O)(c1ccc(NC(=S)NC(=O)c2ccc(Cl)cc2Cl)c(C)c1)C(F)(F)F (centres undefined)
→ ?	?
> CC12CCC(c3c(C(=O)O)nn(-c4ccccc4)c31)C2(C)C (centres undefined)
→ 0%	-3%
> CCc1nc2ccc(C(=O)N(C)Cc3ccccc3)cn2c1N(CC)Cc1cccc(Br)c1
→ -14%	-17%
> CS(=O)(=O)CCCCN=C=S
→ 0%	i
> CCc1ccc(NC(=O)c2ccc3c(c2)N(Cc2ccc(C)cc2)CCS3)cc1
→ -19%	-16%
> COC(=O)c1ccc(NC(=O)CCc2c(C)nc3c(c2C)c(=O)n(C)c(=O)n3C)cc1
→ -11%	-8%
> CC1O[C@@H](O[C@H]2C(Oc3cc(O)c4c(c3)OC(c3ccc(O)cc3)CC4=O)OC(CO)C(O)C2O)C(O)C(O)C1O (some centres undefined)
→ 7%	i
> Nc1ncnc2c1ncn2[C@@H]1O[C@H](C(=O)N[C@H]2c3ccccc3C[C@H]2OC=O)[C@@H](O)[C@H]1O
→ 3%	10%
> Cc1onc(-c2ccccc2)c1C(=O)NC1CC1
→ -13%	-11%
> Cc1ccccc1S(=O)(=O)N(C)C[C@H]1OCc2cnnn2CCCC(=O)N([C@@H](C)CO)C[C@H]1C
→ 9%	-12%
> c1cncc(CSc2ccc(-c3cccnc3)nn2)c1
→ -14%	-12%

Reformatted as comma-separated lines: part of the list above.
Structure,VACV Venus inh,Vaccinia mCherry
CCc1nc2ccc(C(=O)N(C)Cc3ccccc3)cn2c1N(CC)Cc1cccc(Br)c1,-14%,-17%
CS(=O)(=O)CCCCN=C=S,0%,i
CCc1ccc(NC(=O)c2ccc3c(c2)N(Cc2ccc(C)cc2)CCS3)cc1,-19%,-16%
COC(=O)c1ccc(NC(=O)CCc2c(C)nc3c(c2C)c(=O)n(C)c(=O)n3C)cc1,-11%,-8%

Next records follow.
Values in the order – VACV Venus inh	Vaccinia mCherry
> COc1ccc([C@H]2CC(=O)C=C(c3cccc(C(C)C)c3)C2)cc1OC
→ ?	?
> CCn1cc2nc(SCC(=O)Nc3ccc(C)cc3C)n(Cc3ccc(C)cc3)c(=O)c2n1
→ -25%[7.34 µM]	-23%[7.34 µM]
> CC1=Nc2ccccc2N=C(NC(=O)/C=C/C(=O)O)C1c1ccccc1 (centres undefined)
→ -17%	-1%
> O=C(O)c1ccc2[nH]c3c(c2c1)CSCC3
→ -1%	-12%
> CCN(CC(=O)Nc1cc(Cl)ccc1C)C(=O)C1CCCCC1
→ -3%	2%
> Cc1cccc(NC(=O)CCSc2nc(C)cc(C)n2)c1
→ -8%	.
> CCCc1cnc2c(c1SCC(=O)Nc1c(C)cc(C)cc1C)c(=O)n(C)c(=O)n2C
→ 1%	-6%
> CCCCn1c(SCC(=O)Nc2cc(C(F)(F)F)cc(C(F)(F)F)c2)nnc1C(CC)N(C)C (centres undefined)
→ ?	-19%
> CCOc1cccc2sc(Nc3nc4ccc(NC(C)=O)cc4s3)nc12
→ ?	-26%
> CCOc1ccc(CCNC(=O)COC(=O)COc2cc(C)cc(C)c2)cc1OCC
→ -7%	-7%
> CCOC(=O)c1cccc(NC(=O)c2cnc3ccccc3n2)c1
→ -16%	.
> COC(=O)c1sccc1S(=O)(=O)Nc1ccc(S(N)(=O)=O)cc1
→ -16%	i
> COc1ccc(CN2CCN(Cc3ccccc3)C(CCO)C2)cc1OC (centres undefined)
→ 3%	-19%
> Cc1ccc(S(=O)(=O)N2CCC(=O)N([C@H](COCc3cccc(Cl)c3)Cc3ccccc3)CC2)cc1
→ -8%	4%
> N#Cc1cc2c(nc1SCC(=O)Nc1sc3c(c1C#N)CCC3)CCCC2
→ -3%	-13%
> CN(C(=O)c1cccc(NC(=O)Cc2ccc(NC(=O)C3CCCN(C(=O)CCc4ccccc4)C3)cc2)c1)C1CCC1 (centres undefined)
→ ?	?
> CC(C)N1CCN(Cc2ccc(C#CC(C)(C)O)s2)CC1CCO (centres undefined)
→ -12%	-4%
> Cc1cc(C(=O)Nc2ccc3c(c2)OCCO3)co1
→ -7%	i
> O=C(O)c1ccccc1Nc1ccc(OC(F)F)cc1
→ 9%	-1%
> c1ccc(-c2ccc(OCCOCCn3cncn3)cc2)cc1
→ -8%	-13%
> Cc1ccc(CN2C(=O)C(=O)c3cc(Br)cc(C)c32)cc1
→ 3%	-6%
> Cc1ccccc1-c1nc(CS(=O)(=O)CC(=O)NCc2ccc(F)cc2)c(C)o1
→ ?	-18%
> CCOC(=O)c1ccccc1NC(=O)N(Cc1ccco1)C1CCN(C(C)=O)CC1
→ -8%	24%
> CCOC(=O)c1c(C)[nH]c(C)c1S(=O)(=O)N1CCC(C(=O)NCc2ccc(OC)cc2)CC1
→ -5%	-9%
> O=C(COC(=O)/C=C/c1ccc(Cl)cc1)NC1CCS(=O)(=O)C1 (centres undefined)
→ -9%	-11%
> O=C(NCCN1CCOCC1)c1cn(CCc2ccccc2)nn1
→ -29%	-13%
> OC(c1ccc2c(c1)OCO2)c1ncc(-c2ccccc2)[nH]1 (centres undefined)
→ 11%	32%[activator]
> CCCN(CC(=O)Nc1ccccc1OC)C(=O)CCC(=O)c1ccc(F)cc1
→ -9%	-18%
> Cc1ccc(CNC(=O)CN(C(=O)C2(C)CC(=O)N=C3C=CC=CN32)c2ccccc2F)cc1 (centres undefined)
→ 5%	-4%
> O=C(NCc1nnc(SCC(=O)N2CCCC2)o1)c1c(F)cccc1Cl
→ -7%	-7%

Single records (already shown):
Record of `COC(=O)[C@@]12CCCN1[C@H](c1ccc(SC3CCCCC3)cc1)[C@H]1C(=O)N(C)C(=O)[C@H]12` → VACV Venus inh = -26%; Vaccinia mCherry = -10%
Record of `C=CCN1CC[C@]23c4c5ccc(O)c4OC2[C@H](O)CC[C@@]3(O)[C@H]1C5` (some centres undefined) → VACV Venus inh = -7%; Vaccinia mCherry = i
Record of `Cc1cccc(NC(=O)CSCC(=O)N=c2sccn2C)c1` → VACV Venus inh = -11%; Vaccinia mCherry = -16%

Additional records follow:
Values in the order – VACV Venus inh	Vaccinia mCherry
> CCOc1ccc(CN(C)C(=O)CNC(=O)c2ccc3ccccc3c2)cc1OC
→ -22%	?
> O=C(CCC(=O)N1CCN(c2ccc(F)cc2)CC1)c1ccccc1
→ -15%	-28%
> COc1cccc(-c2ocnc2C(=O)Nc2ccc3c(c2)CCC3)c1
→ 4%	-11%
> CC(NC(=O)c1cc2c(cc1Cl)N1CCCCCC1=NS2(=O)=O)c1ccc(S(N)(=O)=O)cc1 (centres undefined)
→ -4%	-13%
> COc1ccc(NC(=O)CSc2cn(CCNC(=O)c3ccc(OC)cc3)c3ccccc23)cc1
→ -17%	-25%
> CCCCNS(=O)(=O)NC(=O)C1=C(N2CCCC2)COC1=O
→ -1%	-6%
> COc1ccccc1Cn1c(=S)[nH]c2cc(C(=O)NCC3CCCO3)ccc2c1=O (centres undefined)
→ -9%	i
> CCNC(=S)NNC(=O)CCn1c2ccccc2c2ccccc21
→ -10%	-17%
> COc1ccc(NC(=O)Nc2cccs2)cn1
→ -11%	-6%
> CCCC(=O)N1CCC1(C)C(=O)Nc1cc(-c2ccccc2)nn1C (centres undefined)
→ 3%	-1%
> C[C@@H](NC(=O)c1ncn(Cc2ccccc2)c1C(=O)N[C@H](C)c1ccccc1)c1ccccc1
→ -15%	-2%
> O=C(Oc1cccc(-n2cnnn2)c1)c1ccccc1
→ -5%	-4%
> CCNC(=S)NCc1ccc2[nH]c(C)cc2c1
→ -9%	-2%
> CCCn1c(SCN2C(=O)c3ccccc3C2=O)nc2cc(Cl)ccc2c1=O
→ 3%	-14%
